High-throughput results (PubChem)
KCNQ2 pot – potentiators of rat KCNQ2 potassium channel; CHO-K1 KCNQ2, FluxOR thallium flux fluorescence; hits give high values; hit rate 0.54% among 310,000; B-score at 10 µM; AID 2239, 2010; Potassium voltage-gated channel subfamily KQT member 2 (Rattus norvegicus), O88943;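 active = fluorescence ratio B-score at least 3 SD of library B-scores, with initial fluorescence B-score within 3 SD, cut at about 5.3 in these data; same plate scores as AID 2156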;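 also: B-score of peak minus minimum over baseline fluorescence ratio after K+ and Tl+ stimulus; positive B-score means potentiation of KCNQ2 with more thallium influx and brighter signal; only the inactives scoring about 0 or higher are listed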
Target sequence (O88943 whole entry, looked up): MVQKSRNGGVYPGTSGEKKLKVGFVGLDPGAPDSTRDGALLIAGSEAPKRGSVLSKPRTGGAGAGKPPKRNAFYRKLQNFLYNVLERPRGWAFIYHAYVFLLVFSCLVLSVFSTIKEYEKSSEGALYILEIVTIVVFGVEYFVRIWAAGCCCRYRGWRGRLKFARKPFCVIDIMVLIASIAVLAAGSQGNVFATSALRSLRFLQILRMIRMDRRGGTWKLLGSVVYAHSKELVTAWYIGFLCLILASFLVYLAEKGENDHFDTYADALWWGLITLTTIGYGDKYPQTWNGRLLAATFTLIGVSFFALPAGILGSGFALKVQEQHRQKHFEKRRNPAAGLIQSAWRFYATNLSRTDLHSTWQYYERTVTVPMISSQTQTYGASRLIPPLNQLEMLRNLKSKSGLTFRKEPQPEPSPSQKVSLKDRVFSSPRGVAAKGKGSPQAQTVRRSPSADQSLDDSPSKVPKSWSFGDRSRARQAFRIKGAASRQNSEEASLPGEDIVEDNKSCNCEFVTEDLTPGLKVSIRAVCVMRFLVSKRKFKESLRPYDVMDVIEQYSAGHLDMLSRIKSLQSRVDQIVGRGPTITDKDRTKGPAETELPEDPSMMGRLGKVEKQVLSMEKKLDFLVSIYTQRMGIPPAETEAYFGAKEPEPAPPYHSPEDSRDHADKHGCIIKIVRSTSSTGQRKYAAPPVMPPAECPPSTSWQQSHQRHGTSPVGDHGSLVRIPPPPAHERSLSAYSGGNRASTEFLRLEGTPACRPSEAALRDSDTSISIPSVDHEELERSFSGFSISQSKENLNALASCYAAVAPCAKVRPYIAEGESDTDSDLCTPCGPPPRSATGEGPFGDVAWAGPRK
KCNQ2 pot baseline – also measured in KCNQ2 pot; calls as there; B-score; compound at 10 µM; measured here: initial fluorescence intensity artifact check;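 brightness before thallium and not channel activity; 0 = typical well and far values either way flag optical interference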
Active calls of the source: *. Only part of the results is shown. The share of hits here may be higher or lower than overall.

SMILES	KCNQ2 pot	KCNQ2 pot baseline
c1ccc2c(SCc3cn4ccccc4n3)nncc2c1	2.1	-0.01
COc1ccc(C(=O)Nc2c(O)ccc3ccccc23)cc1	0.05	0.77
Clc1cccc(OCCN2CCOCC2)c1	0.02	2.5
CCOc1cc(NC(=S)NCc2ccco2)c(OCC)cc1NC(=O)CC	1.3	-0.01
O=C(CN1CCCc2ccccc21)N/N=C/c1c(O)ccc2ccccc12	0.85	-2.1
COc1ccccc1CCNC(=O)CN1C(=O)NC2(CCCC2)C1=O	0.43	0.03
C=CCN(C(=O)CCC(=O)Nc1cc(C)on1)C(C(=O)NC1CCCC1)c1ccc(OC)c(OC)c1 (stereo unspecified)	1.5	-0.99
Cc1c(CNCCCc2ccccc2)c(C(=O)O)c(C)n1Cc1ccccc1	0.19	-0.01
O=C1CS/C(=C/C(=O)c2cccc(Cl)c2)N1	0.08	0.13
CC(C)CC1(C(=O)O)NC(c2ccccc2O)C2C(=O)N(C(C)C)C(=O)C21 (stereo unspecified)	0.02	1.1
COc1ccc(-c2cc3c(=O)n(CC(=O)Nc4cccc(Cl)c4)nc(C)n3n2)cc1	0.07	-0.41
COc1ccc(CCNC(=O)c2cnn3cccnc23)cc1OC	0.44	2.3
COc1ccc(C(=O)Nc2ccc(S(=O)(=O)Nc3cc(C)nc(C)n3)cc2)cc1OC	1.2	-1.1
O=C(Nc1cccc([N+](=O)[O-])c1)c1cc2ccccc2cc1O	0.18	-0.66
OCC1(Cc2ccc(Cl)cc2)CCN(CC2CC=CCC2)CC1 (stereo unspecified)	0.09	2
O=C(N/N=C/c1cccc([N+](=O)[O-])c1)c1ccncc1	1.1	-1.4
CC(NS(=O)(=O)CCNC(=O)c1ccccc1)c1ccccc1 (stereo unspecified)	0.19	0.26
O=C(NCc1ccccn1)C(F)(F)C(F)(F)C(=O)NCc1ccccn1	0.3	0.18
COc1ccccc1N1CCN(S(=O)(=O)c2cn(C)cn2)CC1	0.11	-0.85
CC1(CCC(=O)N2CCCC(N3CCN(c4ccc(F)cc4)CC3)C2)CC1 (stereo unspecified)	0.29	1.7
Cc1cc(S(=O)(=O)Nc2ccc3cn[nH]c3c2)c(C)cc1Cl	3.1	0
O=C(CN1C(=O)COc2ccc(S(=O)(=O)N3CCCC3)cc21)Nc1cccc(F)c1	1.4	0.61
CC(=O)NC1=NN(C(C)=O)C(C)(c2ccc(C)o2)S1 (stereo unspecified)	0.74	-0.67
COc1ccccc1NC(=S)N1CCC(NC(=O)c2ccco2)CC1	0.03	-0.52
Cc1cc(C(F)(F)F)nc(SCC(=O)Nc2nccs2)n1	0.02	1.3
CNC(=O)Nc1ccccc1F	0.45	-1.1
CCC(CC)C1C(C#N)=C(N)Oc2n[nH]c(-c3ccccc3)c21 (stereo unspecified)	0.64	0.92
CCOc1ccc(-c2nc(-c3ccncc3)no2)cc1OCC	1.4	0.16
COc1ccc(-c2[nH]ncc2CN(C)Cc2cccnc2)c(OC)c1	0.02	-0.97
CCN(CC(=O)Nc1c(F)cccc1F)C(=O)c1cc(S(=O)(=O)N(C)C)ccc1N1CCCC1	0.26	1.4
CN(NC(=O)c1ccccc1)c1ncc(C(F)(F)F)cc1Cl	2.2	-1.7
CCN(CC)c1ccc(NC(=O)c2cccnc2)cc1	0.12	0
O=C(Cn1nc(C(F)F)cc1C(F)F)N/N=C/c1ccc2c(c1)OCO2	0.31	2.4
C[C@]12CCC(=O)C=C1CC[C@@H]1[C@@H]2C(=O)C[C@@]2(C)[C@H]1CC[C@]2(O)C(=O)CO	0.94	-0.41
O=C(Cc1ccc(Cl)cc1)NNS(=O)(=O)c1ccc([N+](=O)[O-])cc1	0.57	0.53
N#Cc1c(Nc2ccccc2)c(/C=N/NCCO)c[nH]c1=O	0.72	0.06
COc1cc(CN2CCC(C)CC2)ccc1OCc1ccccc1	0.98	1
O=C(O)CC1S/C(=N/N=C/C=C/c2ccccc2[N+](=O)[O-])NC1=O (stereo unspecified)	0.9	0.72
Cc1cc(F)ccc1S(=O)(=O)Nc1ccccc1C(=O)NCc1cccnc1	1.2	-0.96
COc1cc(N(C)C)c(NC(C)=O)cc1C(=O)O	0.62	-0.34
CCOc1ccc(NC(=O)c2nnn(CC(=O)Nc3ccccc3OCC)c2N)cc1	0.05	-1.1
Cc1nc(C)c(C(=O)C2=C(O)C(=O)N(CCN(C)C)C2c2ccccc2)s1 (stereo unspecified)	1.1	-0.09
O=C(CCn1c(=S)oc2ccccc21)Nc1ccccc1Br	0.39	1.2
Cc1ccccc1OCC(=O)Nc1c2c(nn1C(C)(C)C)CS(=O)(=O)C2	0.42	0.13
O=C(CS(=O)(=O)Cc1ccccc1)Nc1ccccn1	0.57	0.38
O=C(O)c1ccc(CNCc2ccc(Cl)cc2Cl)cc1	0.15	-0.36
Nc1nc(SCc2cccc(Br)c2)n[nH]1	0.07	0.4
COc1ccc(C)cc1NC(=O)CCC(=O)Nc1nnc(C(F)(F)F)s1	0.68	1.6
COc1ccc(NC(=O)Cn2c(=O)oc3cc(S(=O)(=O)N4CCCC4)ccc32)cc1	0.02	0.39
CC(=O)c1cccc(CN2CCCC(C(=O)c3ccc4c(c3)OCO4)C2)c1 (stereo unspecified)	0.28	-0.6
Cn1c(SC(C(=O)Nc2ccc(F)cc2)c2ccccc2)nc2ccccc21 (stereo unspecified)	1.3	0.97
CCc1ccccc1NC(=S)Nn1cnnc1	0.43	-1.4
O=C(Nc1ccc(Cl)cc1)C(Cl)C(=O)c1ccccc1 (stereo unspecified)	0.25	-0.97
CCOc1ncccc1C(=O)Nc1ccc2nc(C)sc2c1	0.2	-0.54
O=C(c1cc([N+](=O)[O-])cc([N+](=O)[O-])c1)N(c1ccccn1)c1ccccn1	0.77	-2.3
CCCC(=O)Nc1nnc(SCC(=O)N2CCCCC2)s1	0.81	-0.01
Cc1ccc(C(C)C)c(OCC(=O)N/N=C/C2CCCCC2)c1	1.5	-0.04
CCOC(=O)NC1(NC(C)C)Oc2ccccc2O1	0.23	1.6
COc1ccc(S(=O)(=O)N2CCCC2)cc1C(=O)N1CCCCC1	1.1	0.41
CCN(CC)CCn1c2c(c(SCC(=O)Nc3ccc4c(c3)OCCO4)nc1=O)CCC2	1.8	0.76
Next entries follow.
SMILES	KCNQ2 pot	KCNQ2 pot baseline
COC(=O)c1cc(C(=O)Nc2nc3ccccc3[nH]2)cc([N+](=O)[O-])c1	0.1	0.01
O=C(COc1ccc(Br)cc1)N/N=C1/SCC(=O)N1Cc1ccco1	0.15	-0.34
COc1cccc(CNCc2ccc(OC)c3ccccc23)c1OC	2.1	-0.54
Cc1ccccc1OCC(=O)Nn1c(COc2ccccc2)nc2ccccc2c1=O	2.1	-1.9
CC(=O)Nc1ccc(S(=O)(=O)N(Cc2ccco2)CC2CCCO2)cc1 (stereo unspecified)	0.02	-0.68
CC(=O)Nc1ccc(S(=O)(=O)Nc2nc3c(s2)CCCC3)cc1	0.65	-0.33
COc1cc(/C=N/NC(=O)Cc2csc(C)n2)ccc1OCC(C)C	0.87	-0.81
CCC1=C2CC[C@H]3C(=O)N(c4ccccc4)C(=O)[C@H]3[C@H]2[C@@]2(C)C(=NCC3CC3)OC(=O)N2C1=O	0.49	1.8
CCOc1ccc(/C=N/NC(=O)CC(=O)Nc2ccc(Cl)c(Cl)c2)cc1	0.44	0.59
Cn1c(SCC(=O)N2CCCC2)nc2ccccc2c1=O	0.46	1.9
COC(=O)N/N=C/c1cccs1	0.22	-0.98
Cc1ccc(Cn2ccc(NC(=O)c3cc(CC(C)C)on3)n2)cc1	4	0.12
CC(=O)c1cn(C(=O)c2ccc(Cl)cc2)c2ccccc12	0.21	1.7
O=C(Nc1nnc(SCc2ccccc2)s1)C1=COCCO1	1.3	0.14
Cc1cc(C)c(/C=N/NC(N)=O)c(C)c1/C=N/NC(N)=O	1.3	0.77
Cc1cc(C)c2[nH]c(=O)c(=O)[nH]c2c1	0.36	0.79
CCCCn1c(CCNC(=O)CCC)nc2ccccc21	1.2	1.6
O=C(/C=N/NC(=O)c1ccc(Cl)cc1Cl)c1ccccc1	1.5	-0.21
FC(F)(F)c1cc(C(F)(F)F)c2ccc(Oc3ccccc3)nc2n1	0.86	0
COc1ccccc1C(=O)NC(=O)COC(=O)CCOc1ccc(C)cc1	1.5	1.7
COc1ccc(NS(=O)(=O)c2cc(NC(=O)CNC(=O)c3ccc(C)s3)ccc2Cl)cc1	0.1	-2.3
Cc1ccc(S(=O)(=O)N/N=C/c2cccc(OC3CSC3)c2)cc1	1.3	0.83
Cc1cccc2cc(CN(CCCN(C)C)C(=S)NCCc3ccccc3)c(=O)[nH]c12	0.06	1.3
COC(=O)c1sc(NC(=O)c2cc(-c3ccccc3)nc3ccccc23)c(C#N)c1C	0.78	-0.52
Cc1cc(NS(=O)(=O)c2ccc(NC(=O)CSc3nnc(-c4ccco4)n3N)cc2)nc(C)n1	1.1	0.34
NC(=S)N/N=C/c1ccc(-c2ccc(SC(F)F)cc2)o1	0.03	0
CCOC(=O)C1(Cc2cccc(Cl)c2)CCCN(C(=O)c2cc(C)n(C)n2)C1 (stereo unspecified)	0.64	-0.55
O=C(Nc1ccccc1)C1CCCN1C(=O)Nc1ccccc1[N+](=O)[O-] (stereo unspecified)	0.78	-0.14
CC1=C(C(=O)Nc2ccccc2)C(c2ccccc2[N+](=O)[O-])NC(=O)N1 (stereo unspecified)	0.71	0.38
O=C(O)c1cc(NC(=O)c2ccccc2[N+](=O)[O-])ccc1O	0.58	-1.6

Record cards (already shown):
Profile of O=C(Nc1ccc(Cl)cc1)C(Cl)C(=O)c1ccccc1 (stereo unspecified) : KCNQ2 pot: 0.25; KCNQ2 pot baseline: -0.97
Profile of COC(=O)c1cc(C(=O)Nc2nc3ccccc3[nH]2)cc([N+](=O)[O-])c1 : KCNQ2 pot: 0.1; KCNQ2 pot baseline: 0.01
Profile of CCN(CC)c1ccc(NC(=O)c2cccnc2)cc1 : KCNQ2 pot: 0.12; KCNQ2 pot baseline: 0

Look-ups from the entries so far:
OCC1(Cc2ccc(Cl)cc2)CCN(CC2CC=CCC2)CC1 (stereo unspecified) in KCNQ2 pot reads 0.09
CCC(CC)C1C(C#N)=C(N)Oc2n[nH]c(-c3ccccc3)c21 (stereo unspecified) in KCNQ2 pot baseline reads 0.92

3 compounds picked at random from the list so far:
SMILES	KCNQ2 pot	KCNQ2 pot baseline
CCOC(=O)C1(Cc2cccc(Cl)c2)CCCN(C(=O)c2cc(C)n(C)n2)C1 (stereo unspecified)	0.64	-0.55
FC(F)(F)c1cc(C(F)(F)F)c2ccc(Oc3ccccc3)nc2n1	0.86	0
O=C(Nc1ccccc1)C1CCCN1C(=O)Nc1ccccc1[N+](=O)[O-] (stereo unspecified)	0.78	-0.14

Next entries.
SMILES	KCNQ2 pot	KCNQ2 pot baseline
Cc1ccc(S(=O)(=O)N2CCCCC2)cc1C(=O)NCCCN1CCOCC1	1.2	1.2
CC1=NN2C(=N)/C(=C\c3cc(C)n(Cc4ccccc4)c3C)C(=O)N=C2S1	0.42	-0.49
O=C(O)CCC(=O)N(Cc1ccco1)C1CC(=O)N(c2ccccc2)C1=O (stereo unspecified)	0.47	0.35
CC(C)NS(=O)(=O)c1ccc(OCC(=O)Nc2ccc(F)cc2F)cc1	0.02	1.6
CS/C(N)=N/N=C/c1ccc([N+](=O)[O-])cc1	0.05	-0.05
Cn1c(=O)c2c(ncn2CCOc2cccc(Br)c2)n(C)c1=O	0.36	0.98
Cc1cccc(NC(=O)Nc2ccc(C#N)cc2)n1	1.7	1.4
O=C(Nc1cccc(C(F)(F)F)c1)c1cc2c(s1)-c1ccccc1OC2	1.7	-0.02
COc1ccccc1NC(=O)c1c([N+](=O)[O-])c(C(C)(C)C)nn1C	2.3	-0.52
CCOc1ccc(NC(=O)CC2C(=O)Nc3ccccc3N2C(=O)c2ccccc2)cc1 (stereo unspecified)	0.88	0.14
COc1ccc2c(-c3ccccc3)cc(SCC(=O)NC(N)=O)nc2c1	0.61	-2.1
O=C1N(c2ccccc2)C2CS(=O)(=O)CC2N1c1ccc(Cl)c(Cl)c1 (stereo unspecified)	0.61	-0.06
COC(=O)CCSCC(=O)N1N=C(c2ccc(OC)cc2)CC1c1cccc(OC)c1OC (stereo unspecified)	0.2	-0.16
Cn1c(=O)n(Cc2ccccc2Cl)c(=O)c2c1[nH]c(=S)n2C	0.67	-2
CS(=O)(=O)c1ccc(Cl)c(NC(=O)COC(=O)COc2ccc3c(c2)CCC3)c1	0.7	-0.39
O=C(NCCS(=O)(=O)c1ccc(Cl)cc1)c1ccc(F)cc1	0.75	-2.1
COc1ccc(NC(=O)Nc2ccc(F)cc2)c(C)c1	1.7	-0.01
Cc1cc(-c2nnc(SCC(=O)c3ccc4c(c3)OCCO4)o2)no1	1.3	-0.03
CCN(CC)c1cc(C)c2cc(NC(=O)c3ccccc3OC)ccc2n1	0.54	0.42
CC(NS(=O)(=O)c1ccc(Br)cc1)C(N)=O (stereo unspecified)	0.31	-1.4
CC(/C=C1\SC(=S)N(NS(=O)(=O)c2ccc(C)cc2)C1=O)=C\c1ccccc1	21*	-0.91*
CCOc1ccc(CCNC(=O)CS(=O)Cc2nc(-c3ccc(OC)c(OC)c3)oc2C)cc1OCC (stereo unspecified)	0.4	0.72
CC(=O)c1cccc(NC(=O)NCc2cccnc2)c1	0.68	1.1
CCCC(=O)NCCc1ccc(F)cc1	0.16	-1.4
O=c1[nH]c(CSc2ncccn2)nc2c1cnn2-c1ccccc1	0.71	-2
Cc1cc(C)nc(SCC(=O)Nc2nc(-c3ccccc3)c(-c3ccccc3)o2)n1	0.07	0.41
O=C(O)/C=C/C(=O)Nc1ccc(OC(F)(F)F)cc1	0.43	2
